High-throughput results deposited in PubChem BioAssay by Johns Hopkins Ion Channel Center.
KCNQ2 enhance: potentiators of rat KCNQ2 potassium channel | B-score at 10 µM | CHO-K1 KCNQ2, FluxOR thallium flux fluorescence; hits give high values | Potassium voltage-gated channel subfamily KQT member 2 (Rattus norvegicus), O88943 | 310,000 compounds, 0.54% hits;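 active = fluorescence ratio B-score at least 3 SD of library B-scores, with initial fluorescence B-score within 3 SD, cut at about 5.3 in these data; same plate scores as AID 2156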;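 note: B-score of peak minus minimum over baseline fluorescence ratio after K+ and Tl+ stimulus; positive B-score means potentiation of KCNQ2 with more thallium influx and brighter signal; only the inactives scoring about 0 or higher are listed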
Target sequence (O88943 whole entry, looked up): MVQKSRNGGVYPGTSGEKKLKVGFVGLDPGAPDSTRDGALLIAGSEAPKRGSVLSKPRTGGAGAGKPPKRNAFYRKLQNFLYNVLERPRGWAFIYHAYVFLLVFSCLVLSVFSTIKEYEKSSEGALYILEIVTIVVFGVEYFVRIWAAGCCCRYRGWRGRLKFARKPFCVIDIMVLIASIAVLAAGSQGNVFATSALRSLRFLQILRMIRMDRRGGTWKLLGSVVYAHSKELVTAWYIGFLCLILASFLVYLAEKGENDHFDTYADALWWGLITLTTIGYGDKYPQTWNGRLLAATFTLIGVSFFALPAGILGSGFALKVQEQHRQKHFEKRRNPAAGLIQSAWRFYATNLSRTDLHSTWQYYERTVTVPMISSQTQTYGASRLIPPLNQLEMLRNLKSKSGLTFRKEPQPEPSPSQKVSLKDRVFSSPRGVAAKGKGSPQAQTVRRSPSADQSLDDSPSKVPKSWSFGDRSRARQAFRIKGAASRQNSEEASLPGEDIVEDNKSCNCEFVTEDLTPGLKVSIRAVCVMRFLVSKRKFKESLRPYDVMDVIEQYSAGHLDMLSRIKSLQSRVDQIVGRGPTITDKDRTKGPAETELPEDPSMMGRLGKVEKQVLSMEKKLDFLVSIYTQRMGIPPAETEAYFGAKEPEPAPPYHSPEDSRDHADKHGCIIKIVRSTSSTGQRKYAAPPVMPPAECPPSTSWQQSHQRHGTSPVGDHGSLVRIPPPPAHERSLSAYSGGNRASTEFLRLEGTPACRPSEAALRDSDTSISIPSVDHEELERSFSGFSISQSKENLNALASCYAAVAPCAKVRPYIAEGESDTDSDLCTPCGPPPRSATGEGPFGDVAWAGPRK
KCNQ2 enhance baseline: recorded beside KCNQ2 enhance, whose call it bears; B-score; compound at 10 µM; measured here: initial fluorescence intensity artifact check;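 brightness before thallium and not channel activity; 0 = typical well and far values either way flag optical interference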
Numbers without * were called inactive.

Compound	KCNQ2 enhance	KCNQ2 enhance baseline
COc1ccccc1NS(=O)(=O)c1cccc(C(=O)NCC2(N(C)C)CCCCC2)c1	0.39	0.82
Fc1cccc(C2NN=C(c3ccccc3)S2)c1 (stereo unspecified)	1.46	1.42
CCOc1ccc(C(=O)N2CCN(c3ccccc3)CC2)cc1	0.67	-0.49
O=C(CSc1nnc(COc2ccc(Cl)cc2)o1)N1CCCC1	0.93	0.03
O=C(O)Cn1cc2c(n1)CCCC2	0.96	0.47
COc1c(C(=O)NCCSC(C)(C)C)ccc2ccccc12	0.51	-1.23
CCN(CC)C(=O)/C(=C/c1cccc([N+](=O)[O-])c1)NC(=O)c1ccco1	1.3	-0.98
CC1(C)CC(CCNC(=O)c2ccc(-n3cnnn3)cc2)CC(C)(C)N1	0.09	0.21
CN(C)S(=O)(=O)c1ccc(C(=O)OCCN=C2NS(=O)(=O)c3ccccc32)cc1	1.31	1.16
CC(=O)Nc1ccc(OCC(O)Cn2c(C(C)C)nc3ccccc32)cc1 (stereo unspecified)	1.93	1.14
O=C(NCCNS(=O)(=O)c1ccc(Cl)cc1)c1cc(OCC(F)(F)F)ccc1OCC(F)(F)F	0.49	-0.34
COC(=O)Cn1c(CN2CCC(Cc3ccccc3)CC2)nc2c1c(=O)n(C)c(=O)n2C	0.76	0.38
CC(C)Sc1nc(N)nc(-c2cccs2)c1C#N	0.55	0.79
CCNC(=O)NC(=O)COC(=O)CCCc1nc2ccccc2s1	0.01	-0.04
Brc1cccc(OCCCN2CCCCCC2)c1	0.71	-0.3
CCOC(=O)N1CCN(C(=O)CN(c2ccc(C)cc2)S(=O)(=O)c2c(C)noc2C)CC1	0.48	0.4
O=S(=O)(NCc1csc(-c2ccccc2)n1)c1ccc(Cl)s1	0.92	-0.03
Cc1cccc2nc3c(nc12)CCCC3	0.54	-0.22
Cc1ccc(CNC(=O)CN(C(=O)C2(C)CC(=O)N=C3C=CC=CN32)c2ccccc2)cc1 (stereo unspecified)	2.06	0.63
COc1ccc(NC(=O)C(c2ccc(OC)cc2)N(C)C(=O)CNC(C)=O)cc1 (stereo unspecified)	1.39	0.76
Cc1cc(C)c2c(N)c3cccc(C)c3nc2n1	1.02	-0.5
Cc1nc2c(C(=O)NCCc3ccccc3)c[nH]n2c(=O)c1Cl	3.63	0.21
COc1cccc(NC(=O)CSc2nnc(NC(=O)c3ccco3)s2)c1	0.05	0.45
Cc1nn(-c2ccccc2Cl)c(Cl)c1/C=N/Nc1cccc(C(=O)O)c1	5.2	-0.24
CC(=O)NS(=O)(=O)c1ccc(NS(=O)(=O)c2ccc(F)cc2)cc1	1.65	-0.01
O=C(NCc1ccco1)C1CCC(N2C(=O)c3ccccc3C2=O)CC1 (stereo unspecified)	0.81	0.08
O=C(CSc1nnnn1-c1cccc(F)c1)Nc1nc2ccccc2s1	0.02	2.51
CC(c1ccccc1)n1c(-c2ccc(C(C)(C)C)cc2)n[nH]c1=S (stereo unspecified)	0.93	2.66
O=C(NCc1ccccc1Cl)C1CCCN(S(=O)(=O)c2cccc3nonc23)C1 (stereo unspecified)	1.13	0.08
Cc1cc(=O)[nH]c(SCC(=O)c2ccc(F)c(C)c2)n1	0.57	0.5
O=C(c1c(F)c(F)c(F)c(F)c1F)N1CCN(c2cccc(C(F)(F)F)c2)CC1	0.24	1.48
c1ccc(OCc2noc(CN3CC[C@@H]4CCCC[C@H]4C3)n2)cc1	0.2	1.37
CCOc1ccccc1CN1CCNC(=O)C1CC(=O)NC1CCCCCC1 (stereo unspecified)	0.49	-1.91
CCC(Cc1ccccc1)NC(=O)C1CC1 (stereo unspecified)	0.9	-0.93
COc1cc(C(=O)NCCCN(C)C)ccc1OCC(=O)Nc1cccc(C(F)(F)F)c1	0.18	2.3
COc1ccc(NC(=O)CN2c3cccc4cccc(c34)S2(=O)=O)cc1	1.73	-0.8
Cc1nnc(Sc2nc3c(c(=O)[nH]c(=O)n3C)n2CCc2ccccc2)s1	0.12	-0.31
COc1ccc(CC(=O)Nc2ccc(NC(=O)c3ccc(Br)cc3)cc2)cc1OC	0.11	-0.24
COC(=O)COc1cc(OCC(=O)OC)c2c(C)c(Cl)c(=O)oc2c1	1.24	1.07
COC(=O)CC1C(=O)NCCN1C(=O)Nc1ccc(Cl)cc1 (stereo unspecified)	0.07	-0.39
Cc1ccc(S(=O)(=O)Nc2cccc(C(=O)N3CCN(c4ccccc4O)CC3)c2)cc1F	0.66	0.43
O=C(Nc1ccc2c(c1)OCCO2)c1ccoc1	0.94	0.57
CCN(CC)c1ccc2c(C)c(-c3ccc(N)cc3)c(=O)oc2c1	0.88	0.31
Cc1ccc(Oc2cc(NC(=O)CCCn3nc([N+](=O)[O-])cc3C)cc([N+](=O)[O-])c2)cc1	1.31	0.96
Cc1cnc(C(=O)Nc2ccc(S(=O)(=O)N(C(C)C)C(C)C)cc2)cn1	0.98	-3.98
CC(C)(C)NC(=O)NC(=O)CN1C(=O)NC(C)(c2ccccc2)C1=O (stereo unspecified)	0.67	0.2
Cc1sc2ncnc(N3CCN(C(=O)c4ccco4)CC3)c2c1C	0.92	1.19
O=C(O)CCCCCNS(=O)(=O)c1c(Cl)cccc1Cl	0.1	1.04
COCCCN1C(=O)c2ccc(C(=O)Nc3ccc(OC)cc3)cc2C1=O	0.14	3.56
Cc1cccc(N(CC(=O)N=Nc2c(O)[nH]c3ccccc23)S(C)(=O)=O)c1C	0.07	0.06
COc1ccc2c(=O)c3c(=O)n(Cc4ccco4)c(C(C)C)nc3oc2c1	0.65	-2.08
O=C(N/N=C/c1c[nH]c2ccccc12)C1CC(=O)N(c2ccccc2)C1 (stereo unspecified)	0.02	-0.17
Cc1ccc(O)c(-c2cc(C(=O)Nc3cccnc3)[nH]n2)c1	0.51	0.86
COc1c(Br)cc(C(N)=O)cc1OCc1ccccc1	1.08	-0.98
CCCc1ccc(C(=O)CCC(=O)O)cc1	0.14	0.02
Oc1cccc(/C=N/Nc2cccc3cccnc23)c1	0.99	0.05

For convenience, 3 of the compounds above.
Compound	KCNQ2 enhance	KCNQ2 enhance baseline
COc1c(Br)cc(C(N)=O)cc1OCc1ccccc1	1.08	-0.98
CCCc1ccc(C(=O)CCC(=O)O)cc1	0.14	0.02
Oc1cccc(/C=N/Nc2cccc3cccnc23)c1	0.99	0.05

New compounds follow
Compound	KCNQ2 enhance	KCNQ2 enhance baseline
N#CCN1C(=O)C2CCCN2c2ccc(S(=O)(=O)N3CCOCC3)cc21 (stereo unspecified)	0.02	0.2
O=C(c1ccc(CSc2nc3ccncc3[nH]2)cc1)N1CCCCCC1	0.52	0.02
O=C(Nc1ccccc1)C1CCN(C(=O)c2ccco2)CC1	0.26	-2.06
O=C(CNC(=O)c1ccccc1)NCC(=O)OCc1ccc(Cl)cc1	0.7	1.19
O=C(NN=C1CCCC1)C1COc2ccccc2O1 (stereo unspecified)	0.03	0.66
COc1ccc(OC)c(N(CC(=O)N2CCC(C)CC2)S(=O)(=O)c2ccccc2)c1	0.02	-2.2
COc1ccc(COC(=O)c2cccc(S(=O)(=O)N3CCN(C(C)=O)CC3)c2)cc1F	2.16	0.09
O=C(N/N=C\c1cn[nH]c1-c1ccc(Cl)cc1)c1cccs1	2.07	-0.21
Cc1ccc(SCC(=O)NNC(=O)c2ccccc2)cc1C	1.79	-0.57
CC(=O)N1CCN(C(=O)c2ccc(S(=O)(=O)Nc3ccccc3Cl)cc2)CC1	0.91	-0.08
COc1ccc([C@H]2C=C(C(=O)O)O[C@@H](OCc3ccc(CO)cc3)C2)cc1	0.66	-1.72
O=C(COc1ccc(/C=N/NS(=O)(=O)c2ccccc2)cc1)Nc1cccc(Cl)c1	1.32	0.59
Cc1ccc(-n2nc(-c3ccc(N)cc3)cc2N)cc1	0.12	0.35
O=C(Nc1ccccc1C(=O)N1CCOCC1)c1ccc([N+](=O)[O-])cc1	1.05	-0.68
O=C(Cn1nc(C(F)(F)F)c2c1CCCC2)N1CCOCC1	1.07	-0.57
Cc1nn(CC(=O)NCCCN2CCN(Cc3ccccc3)CC2)c(=O)c2cc(-c3ccccc3)nn12	0.45	0.41

(more compounds)
smiles	KCNQ2 enhance	KCNQ2 enhance baseline
Nc1cc(=O)nc(SCC(=O)Nc2ccccc2Cl)n1-c1ccccc1	0.01	0.97
C(=N\Nc1ccc(-n2ccnc2)nn1)/c1ccccc1	0.21	0.28
O=C(NCCc1ccccc1)c1cccnc1N1CCCCCC1	0.01	0.3
Cc1cnc(NC(=O)c2cccs2)s1	0.05	0.89
CCC(CC)COC(=O)C1=C(C)NC(=O)NC1c1ccc(OC)cc1 (stereo unspecified)	1.36	1.04
C=CCN(C(=O)c1csnn1)C(C(=O)NC1CCCC1)c1ccc(OC)cc1 (stereo unspecified)	0.31	-0.73
Cc1ccc(C(=O)N2CCOCC2)cc1S(=O)(=O)N1CCCC1	1.07	0.28
OCC1(CC2CCCCO2)CCN(Cc2cccc(O)c2)CC1 (stereo unspecified)	0.06	1.82
COc1ccc(Sc2ccc(/C=C3\C(=O)NN(c4ccccc4)C3=O)o2)cc1	1.67	-1.84
COc1cccc(NC(=O)c2ccc3c(c2)CCN3S(C)(=O)=O)c1	17.1*	-2.55*
CCCn1c(N)c(N(CCOC)C(=O)c2cccc(C(F)(F)F)c2)c(=O)[nH]c1=O	0.03	-0.5
CCS(=O)(=O)N1CCCC(C(=O)NCc2ccc3c(c2)OCO3)C1 (stereo unspecified)	0.36	0.65
CCC(=O)NC(c1ccccc1)c1nc2ccccc2[nH]1 (stereo unspecified)	1.53	0.79
O=C(O)C1Cn2c(nc3c(c2=O)C2(CCCC2)Cc2ccccc2-3)S1 (stereo unspecified)	0.33	-0.92
Cc1ccc(NC(=O)c2ccc(C#CC3(O)CCCCC3)cc2)cc1C	2.94	-0.52
CC(C)=CCN1CCN(Cc2c[nH]c3ccccc23)CC1CCO (stereo unspecified)	0.02	0.08
Cc1ccc(OCC(=O)Nc2ccc(-c3nc4ncccc4o3)cc2)cc1	0.24	-1.77
Cc1ccc(CCc2nnc(SCC(=O)Nc3cc(Cl)ccc3Cl)n2-c2ccccc2)o1	0.05	-1.24
CC1(C)c2cc(Cl)ccc2-n2c1cc(O)c(-c1ccccc1)c2=O	0.12	-1.62
CC(=O)/C(N=Nc1c(C)n(C)n(-c2ccccc2)c1=O)=C(\C)O	0.86	0.77
COC(=O)C1CCN(CC(=O)Nc2ccc(OC)c(Cl)c2)CC1	0.05	0.32
CNC(=O)c1[nH]cnc1C(=O)Nc1ccccc1OC	1.13	-0.89
Cc1ccnc(NC2(C(F)(F)F)N=C3SCCN3C2=O)c1 (stereo unspecified)	1.46	0.04
COc1cc(NC(=O)n2ncc3cc(Cl)ccc32)cc(OC)c1	0.22	1.11
C=CCN=C1N[C@@H](c2ccccc2)C(C(=O)OC)=C(C)N1CCOC	0.32	-1.31
COc1ccc(N2CCN(C(C)C(=O)N3CCCC3)CC2)cc1 (stereo unspecified)	0.7	-1.33
COc1ccccc1OCCc1nnc(N)s1	0.68	0.58
CCOC(=O)c1sc(NC(=O)c2ccc(CC)s2)nc1C	0.89	0.55
CCNc1nc(Oc2ccc(=O)[nH]n2)nc(N2CCOCC2)n1	0.73	-0.36
Oc1c(Br)cc(/C=N/Nc2nncc3ccccc23)cc1Br	1	-0.71
Nc1ccccc1C(=O)N/N=C1/C2CN3CCN(C2)CC1(Cc1ccccc1)C3	1.36	1.06
Cc1ccc(N2C(N)=C(C#N)C3(C(=O)N(C)c4ccccc43)C3=C2CC(C)(C)CC3=O)cc1Cl (stereo unspecified)	0.42	0.68
O=C(O)CC(c1ccccc1)c1ccccc1	0.76	-0.04
Cc1ccc(C(=O)C(C)OC(=O)Cc2n[nH]c(=O)c3ccccc23)cc1C (stereo unspecified)	1.45	1
COc1ccccc1NC(=O)c1ccc(NC(=O)COC(=O)C2CC2C)cc1 (stereo unspecified)	1.33	-3
O=C(NCC(=O)N(c1cccnc1)C(C(=O)NC1CCCCC1)c1ccccc1)c1ccco1 (stereo unspecified)	0.09	0.7
CCC(=O)N1CCc2cc(S(=O)(=O)NCCCN(CC)Cc3ccccc3)ccc21	0.22	-0.3
COc1cc(C)c(S(=O)(=O)Nc2ccc(CC(=O)O)cc2)cc1C	0.04	0.86
CN1CCN(c2ccc(Cl)cc2NC(=O)CC2OC(=O)c3ccccc32)CC1 (stereo unspecified)	1.76	2.11
CC(=O)N1CCc2cc(S(=O)(=O)NC(CC(C)C)C(=O)N3CCn4c3nc3ccccc34)ccc21 (stereo unspecified)	0.62	-0.26

4 entries from above, as labelled records.
Cc1ccc(C(=O)C(C)OC(=O)Cc2n[nH]c(=O)c3ccccc23)cc1C (stereo unspecified)
  KCNQ2 enhance = 1.45	KCNQ2 enhance baseline = 1

COc1ccccc1NC(=O)c1ccc(NC(=O)COC(=O)C2CC2C)cc1 (stereo unspecified)
  KCNQ2 enhance = 1.33	KCNQ2 enhance baseline = -3

O=C(NCC(=O)N(c1cccnc1)C(C(=O)NC1CCCCC1)c1ccccc1)c1ccco1 (stereo unspecified)
  KCNQ2 enhance = 0.09	KCNQ2 enhance baseline = 0.7

CCC(=O)N1CCc2cc(S(=O)(=O)NCCCN(CC)Cc3ccccc3)ccc21
  KCNQ2 enhance = 0.22	KCNQ2 enhance baseline = -0.3

The list is partial. The share of hits here may be higher or lower than overall.
